Assay outcomes from PubChem BioAssay.
ClpP mod – qHTS Assay for Activators of ClpP; ATP-dependent Clp protease proteolytic subunit (Bacillus subtilis (strain 168)), P80244; purified B. subtilis ClpP, FRET peptide cleavage, 20 min; Potency, µM (titrated, usually from 57.5 µM), for inactives: at the top dose activity change, negative = active; 340,000 tested, 1.9% active; active = well fitted falling curve with a large enough effect; inconclusive = small, poorly fitted or top-dose-only effect; inactive = no such curve, though single readings can be large or run the other way; also: potency is read from the fitted curve at half-maximal effect; the source files actives as falling curves though it sought activators and does not explain the sign; nearly all actives have a fitted effect of over 65% in size; many hits overshoot -100%
Target sequence (P80244 whole entry, looked up): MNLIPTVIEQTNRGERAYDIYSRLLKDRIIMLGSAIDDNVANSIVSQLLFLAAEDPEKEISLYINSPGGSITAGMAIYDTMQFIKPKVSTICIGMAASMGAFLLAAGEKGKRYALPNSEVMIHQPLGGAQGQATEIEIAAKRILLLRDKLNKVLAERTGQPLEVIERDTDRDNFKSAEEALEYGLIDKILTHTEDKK
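FRET quenching reversal measured ClpP activation: 10 microg/mL B. subtilis ClpP at pH 8 with the FRET-FV decapeptide, read at 430 nm after 320 nm excitation. The 20-min minus 0-min signal was scaled between DMSO/no-enzyme wells and ADEP (5.8 microM final).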
gsp antag – qHTS for Antagonists of gsp, the Etiologic Mutation Responsible for Fibrous Dysplasia/McCune-Albright Syndrome: qHTS. AID 624288, 2012. 340,000 tested, 0.4% active. Potency, µM (series often up to 76.9 µM), without a hit: at the highest dose activity change, negative = inhibition, actives largely listed as inhibitors. gsp-mutant cells, cAMP HTRF, 30 min; control for the full effect not named in the record; active = falling curve of any shape with a large fitted effect; inconclusive = falling curve, mostly with a smaller effect; inactive = flat or rising curve; cell line not stated here;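 also: intracellular cAMP measured with PDE inhibitor Ro 20-1724 present during compound exposure; potency is read from the fitted curve at half-maximal effect; % is scaled to controls: 0 for no effect and ±100 for the full control effect; nearly all actives have a fitted effect of over 65% in size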
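G418-selected cells were plated in DMEM/10% FBS for 16-24 h at 37C, then treated with compounds plus the PDE inhibitor […] (300 uM solution added) for 30 min at 37C. Intracellular cAMP was measured by HTRF after 30 min lysis at room temperature.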
TRPV1 potentiator – HTS Assay for Compounds that Act as Potentiators of the Vanilloid Receptor 1. 320,000 tested, 0.02% active. AID 540277, 2011. TRPV1-expressing cells, Fluo-8 calcium influx, capsaicin EC20 potentiation; host cell line not named in the record; control for the full effect not named in the record. Transient receptor potential cation channel subfamily V member 1 (Homo sapiens), Q8NER1. potentiation, % at 8.33 µM; active means potentiation above 80%; inconclusive means 30% to 80%; inactive means below 30%; also: 0% is about no effect
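TRPV1-expressing cells were cultured overnight at 35.5C and loaded with Fluo-8 calcium dye for 40 to 90 min at room temperature. After a 10 s baseline, compound was added and calcium influx was read kinetically for 3 min (ex 480/em 520 nm).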
D2 PAM – Beta-Arrestin HTS for Positive Allosteric Modulators of the Human D2 Dopamine Receptor: Potentiators; D(2) dopamine receptor (Homo sapiens), P14416; DiscoveRx D2 beta-arrestin cells, luminescence, 90 min; 100% = 57 uM dopamine signal; potentiation, % (concentration not given with the values); 360,000 tested, 0.23% active; active = potentiation of 50% or more; inconclusive = 30% to 50%; inactive = 30% or less;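 also: compound concentration not given in the record; tested on top of an EC20 dose of dopamine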
Target sequence (P14416 whole entry, looked up): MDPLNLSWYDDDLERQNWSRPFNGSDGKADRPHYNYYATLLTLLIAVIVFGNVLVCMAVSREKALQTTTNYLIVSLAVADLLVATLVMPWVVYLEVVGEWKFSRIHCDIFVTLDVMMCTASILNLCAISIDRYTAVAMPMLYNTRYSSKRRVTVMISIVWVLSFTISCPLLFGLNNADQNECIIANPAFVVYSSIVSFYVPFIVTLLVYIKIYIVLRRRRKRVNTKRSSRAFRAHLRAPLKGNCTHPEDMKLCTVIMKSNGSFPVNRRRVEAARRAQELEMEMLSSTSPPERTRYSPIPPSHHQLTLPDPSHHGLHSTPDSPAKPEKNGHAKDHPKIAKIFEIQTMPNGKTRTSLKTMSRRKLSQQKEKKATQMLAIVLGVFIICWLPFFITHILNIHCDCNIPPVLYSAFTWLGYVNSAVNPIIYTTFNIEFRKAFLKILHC
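D2 cells co-treated with compound plus 50 nM dopamine (EC20) for 90 min at 37 deg C to detect potentiation. Beta-arrestin recruitment was read as enzyme-fragment luminescence after 1 h at ambient temperature. Full response was set by 57 uM dopamine.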
gsp agonist – qHTS for Agonist of gsp, the Etiologic Mutation Responsible for Fibrous Dysplasia/McCune-Albright Syndrome: qHTS | Potency, µM (highest dose often 76.9 µM), without a hit: top-dose activation (cAMP increase), usual class: activators | AID 624287, 2012 | 340,000 tested, 0.13% active | gsp mutant cells, cAMP HTRF, 30 min; control for the full effect not named in the record; active = well fitted activation curve with a large enough effect; inconclusive = small, poorly fitted or top-dose-only effect, or another doubt; inactive = no such curve, though single readings can be large or run the other way; cell line not stated here;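 also: phosphodiesterase inhibitor Ro 20-1724 added with compounds to block cAMP breakdown; potency is read from the fitted curve at half-maximal effect; nearly all actives have a fitted effect of over 60% in size; about a fifth of the inactives were tested at one dose only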
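Cells in DMEM/10% FBS with G418 were pretreated with compounds in DMSO plus […] (300 uM stock) for 30 min at 37C. cAMP was measured by HTRF (cAMP-d2 plus anti-cAMP antibody-K) after 30 min at room temperature.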
Sfp PPTase inh – qHTS Assay for Inhibitors of Bacillus subtilis Sfp phosphopantetheinyl transferase (PPTase); Biochemical Sfp PPTase activity, qHTS; Potency, µM, without a hit: max response, negative = inhibition, usual class: inhibitors; 310,000 tested, 3.5% active; AID 1490, 2009; active = well fitted inhibition curve with a large enough effect; inconclusive = small, poorly fitted or top-dose-only effect, or another doubt; inactive = no such curve, though single readings can be large or run the other way;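 also: the enzyme is Sfp with the accession as filed and its product quenches rhodamine fluorescence; potency is read from the fitted curve at half-maximal effect; 0% = enzyme reaction without inhibitor and -100% = no enzyme wells; top concentration of the series not given in the record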
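Reaction rates are the 30-min fluorescence difference (ex 525, em 598 nm) in wells containing 15 nM Sfp, 5 uM rhodamine-CoA and 12.5 uM BHQ-2-YbbR at pH 7.6 with 10 mM MgCl2.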
Menin MLL FP FL – qHTS Assay for Inhibitors Targeting the Menin-MLL Interaction in MLL Related Leukemias: Competition With Fluorescein Labeled MLL-derived Peptide | Fluorescence polarization, fluorescein-MLL peptide displacement from menin | FP activity change, % at 61.4 µM | 290,000 tested, under 10 active | AID 1766, 2009; inconclusive = falling polarisation curve, or a change in total fluorescence; inactive = total fluorescence flat and polarisation flat or rising; no compound was filed as active; the % refers to the polarisation; negative = inhibition;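 also: % of control where 0% means no effect; inhibitors lower the polarisation; unlabelled MLL peptide was the positive control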
* = called active by the depositor; & = joins results of further samples; [ ] = dose if it differs, or a comment.

CCOC(=O)c1nnc(-c2ccc(C)cc2)nc1Oc1ccccc1Cl was read as ClpP mod -2.4%, gsp antag -14.1%, TRPV1 potentiator -10.1, D2 PAM -22.6, gsp agonist -37.0%[inhibitor], Sfp PPTase inh -16.9% and Menin MLL FP FL 2.9.
Cc1cc(C)c2c(N)c(C(=O)c3ccccc3Cl)sc2n1 was read as ClpP mod -5.9%, gsp antag -7.4%, TRPV1 potentiator 0.3, D2 PAM 0.7, gsp agonist -6.6%[15.4 µM], Sfp PPTase inh 10.6% and Menin MLL FP FL 0.5.
For CN1CCN(C(=S)C(=O)Nc2ccccc2)CC1 the results were ClpP mod -0.5%, gsp antag -11.5%, TRPV1 potentiator inconclusive, D2 PAM -0.4, gsp agonist 22.1%[15.4 µM], Sfp PPTase inh 50.1µM* and Menin MLL FP FL 3.8.
`O=C(c1ccc(COCC(F)(F)F)o1)N1CCCCCC1` gave ClpP mod -2.3%, gsp antag 5.5%, TRPV1 potentiator -2.1, D2 PAM -5.5, gsp agonist 9.8%, Sfp PPTase inh 17.5% and Menin MLL FP FL 4.1.
COC(=O)[C@@H]1C[C@H]2CC[C@H](O)C[C@H]2N1Cc1ccc(-c2ccccc2)cc1 was read as ClpP mod -6.0%, gsp antag 1.7%, TRPV1 potentiator -16.6, D2 PAM -2.3, Sfp PPTase inh 3.4%&-24.4% and Menin MLL FP FL 14.9&9.0.
For O=C(CSc1nc2ccccc2c(=O)n1-c1ccc(Cl)cc1)c1ccco1 the results were ClpP mod -0.1%, gsp antag 1.3%, TRPV1 potentiator -15.6, D2 PAM 29.6, gsp agonist inconclusive, Sfp PPTase inh -0.9% and Menin MLL FP FL 0.5.
COc1ccc(NC(=O)CSc2ccc3c(c2)OCCO3)cc1S(N)(=O)=O was read as gsp antag -1.3%, D2 PAM -4.6 and gsp agonist 8.9%.
Screening CCc1cc(Cn2nc(-c3ccccc3)cc2C(=O)NCc2cccc(C(F)(F)F)c2)on1 returned ClpP mod 1.6%, gsp antag -14.4%, TRPV1 potentiator -5.3 and D2 PAM -18.2.
Screening CCOc1ccc(NC(=O)Cn2nnc(C(=O)NCc3ccccc3OC)c2N)cc1 returned ClpP mod -0.1%, gsp antag 5.5%, D2 PAM -1.3, gsp agonist 10.7%, Sfp PPTase inh 8.3% and Menin MLL FP FL -0.5.
Screening CCOc1ccccc1NC(=O)COC(=O)COc1cccc2c1OC(C)(C)C2 returned ClpP mod -0.5%, D2 PAM -9.5 and gsp agonist -2.4%.
For Cc1nn(C)c(C)c1Nc1ccc(N2C(=O)C3CC=CCC3C2=O)cc1[N+](=O)[O-] (stereo unspecified) the results were gsp antag -5.2%, TRPV1 potentiator -0.2, D2 PAM 1.9, gsp agonist -29.8%, Sfp PPTase inh 2.0% and Menin MLL FP FL -3.8.
O=C(/C=C/c1ccccc1F)c1cccc([N+](=O)[O-])c1 was read as ClpP mod 3.1%, gsp antag -5.7%, TRPV1 potentiator 7.2, D2 PAM -2.0, gsp agonist -33.2%[inhibitor], Sfp PPTase inh 2.82µM* and Menin MLL FP FL 2.4.
COc1ccc2oc(C(=O)OCC(=O)N(C)C3CCS(=O)(=O)C3)c(C)c2c1 (stereo unspecified) was read as ClpP mod 10µM*, gsp antag 2.5%, TRPV1 potentiator -2.6, D2 PAM -0.9 and gsp agonist inconclusive.
Cc1cc(N2CCN(C(=O)c3ccco3)CC2)n2nc(-c3cccc(F)c3)cc2n1 was read as ClpP mod inconclusive, gsp antag inconclusive, TRPV1 potentiator -18.0, D2 PAM -8.9, gsp agonist -0.6%, Sfp PPTase inh -2.5% and Menin MLL FP FL 5.8.
For CCCNC(=O)N1CCC(Cc2ccccc2)CC1 the results were ClpP mod -1.7%, gsp antag 7.1%, TRPV1 potentiator -11.3, D2 PAM -25.0, gsp agonist inconclusive, Sfp PPTase inh -5.2% and Menin MLL FP FL 4.8.
Screening COc1ccc(C(=O)NCC(C)(c2ccccc2)c2ccccc2)cc1S(=O)(=O)N1CCOCC1 returned ClpP mod 0.4%, gsp antag 35.5µM*, D2 PAM -8.6 and gsp agonist 31.6%.
CC(C)CC(=O)Nc1c2c(nn1-c1ccc(F)cc1)CS(=O)C2 (stereo unspecified) was read as ClpP mod 0.6%, gsp antag 6.3%, TRPV1 potentiator -1.5, D2 PAM -3.9, gsp agonist -5.8%, Sfp PPTase inh 8.7% and Menin MLL FP FL 1.3.
For O=C(CCCN1CCC(c2ccccc2)C1)c1ccc2c(c1)OCCO2 (stereo unspecified) the results were ClpP mod -11.2%, gsp antag 6.0%, TRPV1 potentiator 3.3, D2 PAM -29.8, gsp agonist 11.5%, Sfp PPTase inh 17.2% and Menin MLL FP FL -2.6.
Screening Cc1ccc(-c2noc(CCC(=O)NCCN3CCN(Cc4ccccc4)CC3)n2)cc1 returned ClpP mod 28.2µM*, gsp antag -0.4%, TRPV1 potentiator -14.9, D2 PAM -52.9, gsp agonist -4.7%, Sfp PPTase inh 7.4% and Menin MLL FP FL 0.3.
For CCC(C)NC(=O)c1cc(OC)c(OC)c(OC)c1 (stereo unspecified) the results were ClpP mod -0.8%, gsp antag 14.2%, TRPV1 potentiator -0.7, D2 PAM -0.8, gsp agonist -4.1%, Sfp PPTase inh 22.5% and Menin MLL FP FL -0.4.
For COc1ccc(CCC(C)N2CCC(Oc3ccc(C(=O)N4CCCC4)cc3)CC2)cc1 (stereo unspecified) the results were ClpP mod 0.8%, gsp antag -15.8%, TRPV1 potentiator 20.3, D2 PAM -17.5, gsp agonist -39.1%[inhibitor] and Sfp PPTase inh 8.3%.
O=C(CSc1ccccc1F)Nc1ccc(N2CCOCC2)cc1 was read as ClpP mod -1.8%, gsp antag 4.7%, TRPV1 potentiator 14.5, D2 PAM -2.4 and gsp agonist -9.4%.
`O=C(O)Cn1c(=O)c2c(c3ccccc31)CCC2` gave gsp antag 8.5%, TRPV1 potentiator 1.7, D2 PAM 2.1, gsp agonist inconclusive, Sfp PPTase inh 18.9% and Menin MLL FP FL 1.5.
Screening Cc1ccc(C(C(=O)NC2CCCC2)N(Cc2ccc3c(c2)OCO3)C(=O)Cc2cccs2)cc1 (stereo unspecified) returned ClpP mod 0.2%, gsp antag -7.9%, TRPV1 potentiator 5.8, D2 PAM -6.5, gsp agonist 0.0%, Sfp PPTase inh 20.4% and Menin MLL FP FL 1.6.
CCc1ccccc1NC(=O)c1cnc2scc(C)n2c1=O was read as ClpP mod -3.5%, gsp antag -0.1%, TRPV1 potentiator 29.7, D2 PAM 0.4, gsp agonist inconclusive, Sfp PPTase inh 24.4% and Menin MLL FP FL 3.0.
Screening O=c1[nH]c(/C=C/c2ccc(Cl)cc2Cl)c([N+](=O)[O-])c(=O)[nH]1 returned ClpP mod -0.5%, gsp antag -3.5%, TRPV1 potentiator -4.7, D2 PAM 18.9, gsp agonist -31.7%[inhibitor], Sfp PPTase inh 14.9% and Menin MLL FP FL -0.9.
For COc1ccc(/C=C/C(=O)OCC(=O)NCCC2=CCCCC2)cc1 the results were ClpP mod -3.1%, gsp antag -5.2%, TRPV1 potentiator inconclusive, D2 PAM -1.2, gsp agonist 3.7%, Sfp PPTase inh -10.9% and Menin MLL FP FL 0.2.
Screening O=C1NC[C@@H](Cc2ccc(O)cc2)N(CCc2cccc3ccccc23)C1=O returned ClpP mod 0.9%, gsp antag -6.0%, TRPV1 potentiator 3.2, D2 PAM 5.3, Sfp PPTase inh -5.5% and Menin MLL FP FL 2.9.
O=C(O)CCCn1cc(NC(=O)COc2ccc([N+](=O)[O-])cc2)cn1 was read as gsp antag 4.9%, TRPV1 potentiator 17.7, D2 PAM -1.1, gsp agonist -45.6%[inhibitor], Sfp PPTase inh 10.4% and Menin MLL FP FL -1.0.
For O=C1CCNc2c(Cl)cccc21 the results were gsp antag 9.0%, TRPV1 potentiator 1.7, D2 PAM -3.6, gsp agonist 44.3%, Sfp PPTase inh 2.3% and Menin MLL FP FL -16.0.
For O=C(Nc1ccccn1)C12CC3CC(C1)CC(C(=O)Nc1ccccn1)(C3)C2 the results were ClpP mod 2.3%, gsp antag 11.4%, TRPV1 potentiator -13.1, D2 PAM 13.1, gsp agonist 5.0%, Sfp PPTase inh 19.9% and Menin MLL FP FL 5.4.
Screening COc1cccc(NC(=O)CN(C)C(=O)c2cc(-c3ccccc3)nn2-c2ccccc2)c1 returned ClpP mod -2.8%, gsp antag -13.5%, D2 PAM -11.8 and gsp agonist -7.6%.
For CCc1nnc2c(N(C)S(=O)(=O)c3ccc(C)cc3)nc3ccccc3n12 the results were gsp antag -10.0%, TRPV1 potentiator 22.2, D2 PAM 13.5, gsp agonist 2.2%, Sfp PPTase inh 24.6% and Menin MLL FP FL 3.9.
Screening c1cncc(-c2ccc3[nH]ccc3c2)c1 returned ClpP mod 1.9%, gsp antag 3.1%, TRPV1 potentiator -2.0, D2 PAM -15.4 and gsp agonist -7.3%.
COc1cc2c(cc1NC(=O)/C=C/c1cc(OC)c(OC)c(OC)c1)oc1ccccc12 was read as ClpP mod -15.3%, gsp antag 12.3%, TRPV1 potentiator 7.3, D2 PAM 9.0, gsp agonist 1.9%, Sfp PPTase inh inconclusive and Menin MLL FP FL 3.0.
For Cc1cccnc1NC(=O)CCCN1C(=O)c2ccccc2C1=O the results were ClpP mod -0.7%, gsp antag -0.2%, TRPV1 potentiator -3.0, D2 PAM 0.4, gsp agonist -21.7%, Sfp PPTase inh 11.6% and Menin MLL FP FL -0.6.
CN1CCN(C(=O)c2ccccc2NC(=O)c2ccccc2)CC1 was read as ClpP mod 1.1%, gsp antag 11.9%, TRPV1 potentiator 1.6, D2 PAM 6.8, gsp agonist 12.1% and Sfp PPTase inh 16.4%.
CC(=O)Nc1ccc(NC(=O)C2CCCN2S(=O)(=O)c2cccc3nsnc23)cc1 (stereo unspecified) was read as gsp antag 5.2%, TRPV1 potentiator -12.6, D2 PAM -4.5, gsp agonist -29.5%, Sfp PPTase inh 9.1% and Menin MLL FP FL 0.1.
